# Prx2 Sm inh: Schistosoma mansoni Prx2 inhibition. S. mansoni Prx2 activity coupled to TGR/GSH (TGR is thioredoxin glutathione reductase), NADPH fluorescence loss, qHTS; some inactives read as strong as hits. Potency, µM. hit rate 0.07% among 65,000; active means full or partial inhibition curve with a strong effect at the top dose; inconclusive means weaker partial or single-point curve; inactive means no accepted curve; also: series up to 57 µM; many of its hits are not listed in these tables
#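 Activity is read as the drop in NADPH fluorescence (365/450 nm), recorded every 30 sec for 8 min after H2O2 addition. Prx2 is coupled to TGR-driven NADPH oxidation through glutathione, in phosphate buffer pH 7.4.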
# LT uptake inh: blocks cellular internalization of anthrax lethal toxin. Cells, anthrax lethal toxin internalization, FRET ratio (460/530). Potency, µM (doses to about 40 µM), without a hit: at the highest dose activity change, negative = inhibition, actives largely listed as inhibitors. hit rate 0.67% among 70,000. AID 912; active = well fitted falling ratio curve with the 530 nm signal flat; inconclusive = other ratio curves, or a change in one channel alone; inactive = flat curves in the ratio and both channels; the % refers to the ratio; also: % is scaled to controls: 0 for no effect and ±100 for the full control effect; nearly all actives have a fitted effect of over 50% in size; tested in ME-180 cells; beta-lactamase reporter
# Active calls of the source: *; u = inconclusive; x = no result given; [ ] = remark or other dose. Potency is read from the fitted curve at half-maximal effect. A portion of the library; count on the stated rates, not on these rows.
Molecule	Prx2 Sm inh	LT uptake inh
Cc1ccc(N2CC(C(=O)NCc3cccnc3)CC2=O)cc1 (configuration not stated)	>57	6.2%
CC1CN(C(=O)c2cc3ccccc3oc2=O)CC(C)O1 (configuration not stated)	x	5.5%
COCCn1c(=O)c(-c2cccs2)nc2cnc(N3CCN(C)CC3)nc21	>57	u
CCn1nc(-c2ccccc2)c2nc3ccccc3nc21	>57	u
CCN(CC(=O)NCc1ccc(F)cc1)C(=O)C1CCN(C(=O)Nc2ccccc2)CC1	>57	6.0%
CCOC(=O)N1CCC(N2Cc3cccc(C(=O)NCc4ccccn4)c3C2=O)CC1	>57	u
CN(C)c1ncc2nc(-c3ccc(Cl)cc3)c(=O)n(CCC#N)c2n1	>11.4	u
COC(=O)C1=CN(C)C=C(C(=O)OC)C1c1ccsc1	x	u
COC(=O)C1C(O)=C(C=NCC(C)N=CC2=C(O)C(C(=O)OC)C(C)(C)CC2=O)C(=O)CC1(C)C (configuration not stated)	>57	0.1%
COc1ccc(-n2nnnc2-c2cccnc2)cc1	>57	9.3%
O=C(Nc1nc(-c2ccc(S(=O)(=O)N3CCCC3)cc2)cs1)c1cccs1	>57	-26.3%
O=S(=O)(c1ccccc1)N1CCC2(CCN(Cc3nccs3)CC2)CC1	>57	4.8%

# Already shown: an excerpt of the list.
Molecule	Prx2 Sm inh	LT uptake inh
CCN(CC(=O)NCc1ccc(F)cc1)C(=O)C1CCN(C(=O)Nc2ccccc2)CC1	>57	6.0%
CCOC(=O)N1CCC(N2Cc3cccc(C(=O)NCc4ccccn4)c3C2=O)CC1	>57	u
CN(C)c1ncc2nc(-c3ccc(Cl)cc3)c(=O)n(CCC#N)c2n1	>11.4	u
COC(=O)C1=CN(C)C=C(C(=O)OC)C1c1ccsc1	x	u
COC(=O)C1C(O)=C(C=NCC(C)N=CC2=C(O)C(C(=O)OC)C(C)(C)CC2=O)C(=O)CC1(C)C (configuration not stated)	>57	0.1%
COc1ccc(-n2nnnc2-c2cccnc2)cc1	>57	9.3%

# The listing continues.
Molecule	Prx2 Sm inh	LT uptake inh
COCCn1c(C)cc(C(=O)COC(=O)C23CC4CC(CC(O)(C4)C2)C3)c1C	>57	-20.1%
COC(=O)C1CCN(C(=O)COC(=O)CC(NC(N)=O)c2ccc(Cl)cc2)CC1 (configuration not stated)	>57	u
COc1ccc(CCC(C(O)C(F)(F)F)S(=O)c2ccccc2)cc1 (configuration not stated)	>57	-15.1%
Cn1c(=O)n(Cc2ccccc2F)c(=O)c2c1nc1n2CCCN1CCc1ccccc1	>57	-6.8%
O=C1NC(=O)c2cc(NC(=O)C3CCCCC3)ccc21	>57	8.0%
COc1ccccc1-c1nnc(SCC(=O)Nc2cc(C)on2)o1	>57	4.9%
Cc1ccccc1N(CC(=O)NCc1ccc2c(c1)OCO2)C(=O)CCC(=O)Nc1ccccn1	>57	-8.2%
COc1ccc(N(CC(=O)NCc2cccnc2)S(=O)(=O)c2c(C)nn(C)c2C)cc1	>57	-2.1%
CCOC(=O)N1CCC(N2C(=O)c3ccccc3C2Nc2ccccc2C)CC1 (configuration not stated)	>57	7.1%
CN(C(=O)CSc1nc2ccccc2n1CCc1ccccc1)C1CCS(=O)(=O)C1 (configuration not stated)	>57	17.3%
Cc1nnc(NC(=O)NCN2C(=O)C3C4C=CC(C4)C3C2=O)s1 (configuration not stated)	>57	-6.8%
COc1ccc(C(=O)N2CCC3(CCN(C(=O)Nc4ccccc4)CC3)CC2)cc1	>57	12.1%
Cc1ccc(-n2c(CNc3ccc(F)cc3)nnc2SCC(=O)NCc2ccco2)cc1	>57	-12.2%
OCCN1CCN(c2nc(N3CCCCC3)nc(N3CCCCC3)n2)CC1	>57	-23.0%
CCCn1nnc(NC(=O)COc2ccc(Cl)cc2)n1	>57	14.5%
Cc1ccc2c(c1)N(Cc1ccncc1)C(=O)C(C)O2 (configuration not stated)	>57	-5.5%
CCn1c2ccccc2c2cc(NC(=O)N3CCOCC3)ccc21	>57	-9.3%
COCCn1c(SC(C)C(=O)Nc2ccc3c(c2)OCCO3)nc2ccccc2c1=O (configuration not stated)	>57	u
COc1ccc(C(=O)NCCn2ccc3ccccc32)cc1OC	>57	u
Cn1c(=O)c(CCc2ccccc2)nc2cnc(N3CCOCC3)nc21	>11.4	u
CCn1ncc(Br)c1C(=O)Nc1nccs1	>57	-4.9%
O=C(O)c1cccc(Cn2cc(Br)cn2)c1	>57	4.8%
Cc1ccc(NC2=Nc3ccccc3CS2)cc1	>57	u
CN1C(=O)NC(NC(=O)c2cccs2)(C(F)(F)F)C1=O (configuration not stated)	>57	0.2%
O=C1c2ccccc2C(=O)N1CCCOCc1c[nH]c(=O)[nH]c1=O	>57	-10.5%
O=C1OCCC1Sc1nc2ccccc2n1Cc1ccccc1 (configuration not stated)	>57	u
O=C(Nc1ccc2c(c1)OCCO2)C1CCN(S(=O)(=O)Cc2ccccc2)CC1	>57	2.2%
CCC1CCCCN1S(=O)(=O)c1ccc(NC(=O)CSc2ncccc2C(=O)O)cc1 (configuration not stated)	>57	-8.1%
CCOC(=O)C1CCN(C(=O)c2cn(C)c(=O)c3cc(OC)c(OC)cc23)CC1	>57	-2.5%
COc1ccc(-c2nc(CN3CCC(C(=O)NC4CCCc5ccccc54)CC3)c(C)o2)cc1OC (configuration not stated)	>57	12.6%
COc1ccc(S(=O)(=O)Nc2cccc(SC)c2)cc1OC	>57	u
CCN(CC)C(=O)C1CC(=O)N(c2ccc(F)c(Cl)c2)C1 (configuration not stated)	>57	-6.4%
CCOc1ccccc1NC(=O)CN1C(=O)COc2ccc(Cl)cc21	>57	u
O=C(Nc1ccc2c(c1)OCO2)c1cnn2cccnc12	>57	0.4%
CS(=O)(=O)Nc1ccc(C(=O)NCCc2ccccc2)cc1	>57	-11.2%
COc1ccc(-c2noc(Cc3ccccc3OC)n2)cc1	x	u
Cc1ccc(C(C(=O)NC2CCCCC2)N(C(=O)c2csnn2)C2CC2)o1 (configuration not stated)	>57	8.2%
C[C@H](NC(=O)c1ccc(Cl)c(Cl)c1)c1ccc(-c2ccccc2)cc1	>11.4	u
COCCn1nnnc1C(c1ccc2ncccc2c1)N1CCN(c2ccccc2F)CC1 (configuration not stated)	>57	2.9%
N#C/C(=C/N1CCOCC1)c1ccccc1	>57	0.7%
COc1cc(-c2nnc(SCC#CCO)o2)cc(OC)c1OC	>57	-20.9%
Cc1cc(=O)n2c(c1C#N)SC1CCCCC12O (configuration not stated)	>57	0.6%
Cn1c(=O)c2c(SCC(=O)N3CCOCC3)nc(CC(C)(C)C)nc2n(C)c1=O	>57	u
CN(C)Cc1c(O)ccc2oc(Cc3ccccc3)cc12	>57	u
CCCCCC(=O)OC(CN1CCCCC1)CN1CCCC1=O (configuration not stated)	>57	5.0%
Cn1cccc1C(C(=O)NC1CCCCC1)N(C(=O)Cc1cccs1)c1ccc2c(c1)OCCO2 (configuration not stated)	>57	-7.3%
CCOC(=O)Nc1cc(C)c(Cl)cc1OC	>57	-28.6%
CCCn1c(SCC(=O)Nc2ccccc2C(=O)OC)nc2c1c(=O)n(C)c(=O)n2C	>57	7.3%
Cn1c(CNc2nc(-c3ccccc3)cs2)nnc1SCC(=O)N1CCc2ccccc21	>57	-6.0%
Cc1ccc(-c2nnn(CC(=O)N(Cc3ccco3)C(C(=O)NC(C)(C)C)c3cccs3)n2)o1 (configuration not stated)	>57	-1.4%
CCOc1ccc(-n2c(SCC(=O)Nc3ccc(OC)cc3OC)nc3c(c2=O)SCC3)cc1	>57	-3.7%
O=C(c1ccccc1)N1CCn2c(nc3ccccc32)C1	>57	4.3%
CCN(CC)C(=O)c1sc2nc(-c3ccccn3)[nH]c(=O)c2c1C	>57	u
Cc1cc(C)nc(NC(=O)c2c(-c3ccccc3Cl)noc2C)n1	>57	-1.2%
CCC1=NC(c2ccccc2Cl)N(O)C1(C)C (configuration not stated)	>57	10.9%
COc1cccc(C2CC(c3cccc(Br)c3)n3nc(N)nc3N2)c1 (configuration not stated)	>57	-16.4%
Cc1cc(Nc2ncc(Cl)cc2Cl)n[nH]1	>57	-2.8%
CCOc1ccc(OCC)c(NC(=O)C2CCCN(c3ncccn3)C2)c1 (configuration not stated)	>57	u
CCCCCC(=O)Nc1cccc(-c2nc3ncccc3o2)c1	>57	u
CCOC(=O)C1CCN(c2c(NCCCN(CC)Cc3ccccc3)c(=O)c2=O)CC1	>57	11.4%

# Additional compounds:
Molecule	Prx2 Sm inh	LT uptake inh
COCc1nnc(NC(=O)c2ccco2)s1	>57	x
CC(NC(=O)c1ccccc1NC(=O)c1ccco1)C(=O)O (configuration not stated)	>57	8.8%
Cc1nn(-c2ccccc2)c2sc(C(=O)OCN3C(=O)c4ccccc4C3=O)cc12	x	-19.7%
O=C(O)c1ccc(-c2ccccc2Cl)o1	>57	2.0%
O=c1cnc2cncnc2n1Cc1ccccc1	>57	u
Cc1ccc(C(=O)CSc2nnc(-c3ccccc3)n2-c2ccccc2)o1	>57	10.8%
COCC(=O)N1CCC2(CC1)CN(Cc1cc(C(F)(F)F)cc(C(F)(F)F)c1)C2	>57	u
COc1ccc(OC)c(-c2ccccc2/C=N/NS(=O)(=O)c2ccc(C)cc2)c1	x	-12.0%[8 µM]
Cc1ccc2cc3cc(C(=O)N(C)C4CCCCC4)oc3nc2c1	>57	16.3%
O=C(Nc1ccc(N2C(=O)C3C4C=CC(C4)C3C2=O)cc1)Nc1cccnc1 (configuration not stated)	>57	0.4%
CC(=O)NC(CCS(C)(=O)=O)C(=O)Nc1nc(C)cs1 (configuration not stated)	>57	-9.4%
O=C(O)c1ccccc1COc1ccccc1Cl	>57	-4.3%

# Single records, as listed above.
# O=C(O)c1ccccc1COc1ccccc1Cl in the list: Prx2 Sm inh: >57; LT uptake inh: -4.3%
# CCN(CC(=O)NCc1ccc(F)cc1)C(=O)C1CCN(C(=O)Nc2ccccc2)CC1 in the list: Prx2 Sm inh: >57; LT uptake inh: 6.0%

# The results go on.
# Every second line gives: Prx2 Sm inh, LT uptake inh
CCOC(=O)c1c(NC(=O)c2cccs2)sc2c1CCN(C(=O)OCC)C2
  >57, -25.2%
CC(=O)Nc1ccc(S(=O)(=O)N2C3CCCC2CC(NC(=O)C2CCCCC2)C3)cc1 (configuration not stated)
  >57, -4.9%
Nc1c(Br)cc(Br)c(N2CCCC2=O)c1Br
  x, -11.5%
CCCS(=O)(=O)c1c(S(=O)(=O)CCC)c2c(N)cccn2c1C(=O)c1ccc(F)cc1
  >57, u
Cc1noc(C)c1S(=O)(=O)N1CCC(C(=O)N2CCN(C(=O)c3ccco3)CC2)CC1
  >57, 9.6%
COc1ccccc1CNC(=O)C1CCCN(S(C)(=O)=O)C1 (configuration not stated)
  >57, -2.9%
Cc1ccc(-c2nc(CSCC(=O)N3CCN(c4ccccn4)CC3)c(C)o2)cc1
  >57, u
CCOC(=O)c1ccc(NS(=O)(=O)c2ccc3[nH]c(=O)[nH]c3c2)cc1
  >57, u
Nc1nc2nonc2nc1N1CCCCC1
  x, 5.2%
COc1ccc(S(=O)(=O)NCC2CCC(C(=O)NCc3ccco3)CC2)cc1 (configuration not stated)
  >57, 8.7%
CCOC(=O)C(C(=O)Nc1nccs1)C1CCCCC1 (configuration not stated)
  >57, -14.1%
Cc1cccc(N=C2NC(=O)CS2)c1
  >57, u
CCOC(=O)c1c(CN(CC)CC)oc2cc(Br)c(O)cc12
  >57, u
O=C(CNC(=O)c1ccccc1)NCCc1nc2ccccc2[nH]1
  >57, -10.6%
CC1CCN(S(=O)(=O)c2ccc3ncn(CC(=O)N(C)Cc4ccccc4)c(=O)c3c2)CC1
  >57, u
COC(=O)c1sc(S(=O)(=O)N2CCN(c3ccccc3)CC2)c(C(=O)OC)c1C
  >57, 0.0%
Cc1cc(NC(=O)COC(=O)c2ccc(S(=O)(=O)N3CCCc4ccccc43)cc2)no1
  >57, -17.0%
COc1cccc2cc(-c3nnc(SCC(=O)Nc4nc(C)cs4)n3C)oc12
  >57, u
Cc1nn(-c2ccccc2C(=O)O)c(=O)c2ccccc12
  >57, x
Cc1nc2ccc(S(=O)(=O)NC(C(=O)NCc3ccco3)C(C)C)cc2s1 (configuration not stated)
  >57, -9.0%
CCOC(=O)Cn1c(C(=O)OCC)cc2sccc21
  >57, -11.1%
CC1CCN(CCNC(=O)CCS(=O)(=O)c2ccc(Br)cc2)CC1
  >57, -15.3%
O=C(O)C(c1ccccc1)N1CCCC1 (configuration not stated)
  >57, -0.5%
CCCCCc1c(C)nc(SCC(=O)O)[nH]c1=O
  >57, 12.9%
COc1ccc2cc(CCNC(=O)CC(C)(C)C)c(=O)[nH]c2c1
  >57, 7.1%
Cc1nc2ccccn2c1/C(O)=C1\C(=O)C(=O)N(CCN2CCOCC2)C1c1ccncc1 (configuration not stated)
  >57, 1.4%
CCOC(=O)N1CCN(C(=O)CCNS(=O)(=O)c2cc(Br)cnc2N)CC1
  >57, 3.9%
O=C(O)c1ccccc1C(c1ccc(O)cc1)c1ccc(O)cc1
  x, -5.4%
CCCC(=O)N(C)c1nnc(-c2ccc(OC)cc2)s1
  >57, -17.0%
CC(OC(=O)C1CCN(S(=O)(=O)c2ccccc2)CC1)C(=O)Nc1ncc(Cl)cc1Cl (configuration not stated)
  >57, 6.4%
